VACV mCherry inh: qHTS for Stage-Specific Inhibitors of Vaccinia Orthopoxvirus: mCherry Reporter Primary qHTS; Vaccinia virus mCherry reporter infection, fluorescence; about a quarter of the inactives have no number; Potency, µM (series often up to 36.5 µM), for inactives: top-dose activity change, negative = inhibition, most hits filed as inhibitors; 310,000 compounds, 0.63% hits; active = well fitted inhibition curve with a large enough effect; inconclusive = small, poorly fitted or top-dose-only effect; inactive = no such curve, though single readings can be large or run the other way; tested in A549 cells; note: nearly all actives have a fitted effect of over 35% in size; inactives centre near -10
Vaccinia Venus: qHTS for Stage-Specific Inhibitors of Vaccinia Orthopoxvirus: Venus Reporter Primary qHTS; Vaccinia virus Venus reporter expression, fluorescence; Potency, µM (series often up to 36.5 µM), without a hit: at the highest dose activity change, negative = inhibition, usual class: inhibitors; 330,000 compounds, 0.46% hits; active means well fitted inhibition curve with a large enough effect; inconclusive means small, poorly fitted or top-dose-only effect; inactive means no such curve, though single readings can be large or run the other way; tested in A549 cells; note: nearly all actives have a fitted effect of over 30% in size; inactives centre near -10
Numbers without * were called inactive; i = inactive; ? = inconclusive; · = not tested or not shown; & = joins results of further samples. % is set by controls: 0 for no effect and ±100 for the full control effect; potency is the fitted concentration of half-maximal effect.

SMILES | VACV mCherry inh | Vaccinia Venus
CCOc1ccc(S(=O)(=O)NNC(=S)Nc2ccc(Br)cc2)cc1 | -8.8% | -17.8%
O=C(c1ccc(N2CCCC2=O)cc1)N1CCCCCC1 | -13.1% | -5.0%
CCN(C(=O)COC(=O)c1ccc(F)c(S(=O)(=O)N2CCOCC2)c1)C1CCS(=O)(=O)C1 (centres undefined) | -5.4% | -15.9%
Cc1ccc(S(=O)(=O)/N=C(/c2ccc(F)cc2)N2CCCCC2)cc1 | i | -7.1%
COc1ccc(/C=N/Nc2cc(C)nc3ccc(Br)cc23)cc1 | ? | -29.8%
Cc1cccc(NC(=O)c2nc[nH]c2C(=O)NCC(=O)OCc2ccccc2)c1 | i | -26.4%
CCc1ccccc1N1CC(C(=O)Nc2cc(C)on2)CC1=O (centres undefined) | 12.1% | 4.0%
CCc1cc(=O)oc2c3c(cc(OCC(=O)NCc4cccnc4)c12)OC(C)(C)CC3 | -14.5% | -13.7%
Cc1ccc(NC(=O)CSc2cn(CC(=O)N3CCCC3)c3ccccc23)cc1Cl | i | -16.4%
CSc1nc(Cl)c(Br)c(Nc2c[nH]c(=O)[nH]c2=O)n1 | -11.3% | -8.3%
NC(CS(=O)O)C(=O)O (centres undefined) | -4.9% | -7.5%
Cc1nnc(-c2cccc(Br)c2)c2cn(-c3cccc(Br)c3)nc12 | -2.7% | -9.8%
COc1ccc(NC(=O)c2oc3ccccc3c2NC(=O)Cc2coc3ccc(C)cc23)cc1 | -5.6% | -12.5%
COc1ccc(-c2nn(-c3ccccc3)cc2CNC(C)Cn2cncn2)c(F)c1 (centres undefined) | -17.1% | -8.5%
CCCNC(=O)c1ccccc1NC(=O)c1ccccc1N(C)S(=O)(=O)c1ccc(C)cc1 | ? | ?
Nc1nnnn1-c1cccc([N+](=O)[O-])c1 | i | -4.1%
N#C/C(=C(/O)CSc1nnc(Cc2cccs2)n1C1CCCCC1)c1nc2ccccc2[nH]1 | -20.1% | -16.2%
CS/C(=C/[N+](=O)[O-])Nc1cccc2c1C(C)CC2(C)C (centres undefined) | i | -10.4%
COCCNC(=O)C1(C)CCCN(CC(=O)c2ccc(OC)cc2)C1 (centres undefined) | -4.3% | -2.7%
COc1ccc(/C=N\NC(=O)c2cc(O)c(O)c(O)c2)cc1COc1ccc(C(=O)OCC(C)C)cc1 | -18.4% | -21.5%
Cc1ccc(-n2nc(C)c3c(C)c(CCC(=O)NCc4cccc(Cl)c4)c(C)nc32)cc1C | -7.2% | -15.9%
CCCS(=O)(=O)NC(=O)C1(C)CCN(C(=O)Cc2ccc3ccccc3c2)C1 (centres undefined) | -17.6% | -24.0%
COc1cc(CC(=O)N(CC(C)C)C2CCS(=O)(=O)C2)cc(OC)c1OC (centres undefined) | -1.9% | -10.5%
Cc1ccc(OCC(=O)O)c(O)c1 | -14.0% | -2.3%
O=C(c1[nH]c2ccccc2c1Sc1ccc(Cl)cc1)N1CCCCC1 | -4.1% | -12.0%
O=S(=O)(Nc1ccc(-n2cnnn2)cc1)c1ccccc1F | -27.5% | -6.0%
O=C(NNc1nc2ccccc2o1)c1ccccc1 | -4.3% | -2.8%
CCN1C(=O)[C@@H]2[C@@H](c3ccc(-c4ccc(C(C)=O)cc4)cc3)N3CCC[C@@]3(C(=O)OC)[C@@H]2C1=O | -8.1% | -6.4%
COc1cc(/C=C/C(=O)O)cc(OC)c1OC | -14.5%&-5.0% | -14.8%&-4.2%
CCCCn1c(N)c(N(CCOC)C(=O)c2cc(-c3ccc(OC)c(OC)c3)nc3ccccc23)c(=O)[nH]c1=O | i | -7.3%

Gathered by group, the compounds so far with a nitro group on carbon
SMILES | VACV mCherry inh | Vaccinia Venus
Nc1nnnn1-c1cccc([N+](=O)[O-])c1 | i | -4.1%
CS/C(=C/[N+](=O)[O-])Nc1cccc2c1C(C)CC2(C)C (centres undefined) | i | -10.4%

Continuation.
SMILES | VACV mCherry inh | Vaccinia Venus
CCC(CC)C(=O)Nc1ccc(C(=O)c2ccccc2)cc1 | -8.4% | -12.2%
O=C(CN1C(=O)NC2(CCCC2)C1=O)NCc1ccco1 | -17.5% | -8.9%
COCCN(C(=O)c1csnn1)C(C(=O)NC1CCCCC1)c1cccs1 (centres undefined) | -2.5% | -3.9%
O=C(CN1C(=O)C2CC=CCC2C1=O)NCc1cccs1 (centres undefined) | -0.7% | 2.1%
Cc1ccc2nc(SCc3nnc(-c4ccccc4Br)o3)[nH]c2c1 | · | -14.6%
COc1cccc(N2CCN(CC(=O)NC(C)c3ccccc3)CC2)c1 (centres undefined) | i | -9.0%
Cc1ccc(C)c(Cn2c(=O)n(-c3ccc(CC(=O)NCc4ccco4)cc3)c(=O)c3sccc32)c1 | -3.0% | -2.7%
CSc1nc(O)c(Nc2ccccc2)c(=O)[nH]1 | -8.0% | 4.4%
C=CCNc1oc(-c2ccc(OCC)cc2)nc1C#N | -23.1% | -17.8%
CCc1nn(CC(=O)N2CCN(c3cccc(OC)c3)CC2)c(=O)c2cc3occc3n12 | -7.2% | 10.4%
CC1CC(C)CN(C(CCc2ccccc2)C(=O)NC2CCCCC2)C1 (centres undefined) | 3.6% | 10.6%
CCN(CC)S(=O)(=O)c1cccc(C(=O)Nc2sc3c(c2C#N)CCC(C)C3)c1 (centres undefined) | -8.0% | -13.3%
CC(=O)Nc1ccc(NS(=O)(=O)c2ccc(-c3csc(C)n3)s2)cc1 | i | 4.8%
CCc1ccc(NC(=O)Nc2ccc3c(c2)N(C)C(=O)CS3)cc1 | -0.2% | -12.5%
Cc1nn(-c2ccccc2)c2c1C(c1ccccc1)C(C#N)=C(N)O2 (centres undefined) | i | -20.0%
CCN(CC)c1nc2ccccc2n(Cc2cccc(OC)c2)c1=O | i | -16.5%
COC(=O)C1=CN(c2ccc(F)cc2)C=C(C(=O)OC)C1c1cccc(Br)c1 | i | -7.4%
Nc1nc2ccc(Cl)cc2cc1C(=O)NC1CC1 | -3.5% | -2.0%
COc1ccc(CCNC(=O)CCCn2nc(C)c3sc4ccccc4c3c2=O)c(OC)c1 | -9.0% | -13.6%
C=C(C)Cn1c(CCCNC(=O)CC)nc2ccccc21 | -9.2% | 1.2%
Cc1cc(C)nc(NS(=O)(=O)c2ccc(NC(=O)CN3C(=O)S/C(=C\c4ccccc4)C3=O)cc2)n1 | i | -5.9%
CC(C)NC(=O)c1cccc(Br)c1 | i | -6.5%
O=C(CCNC(=O)c1ccc(Cl)cc1)NCc1cccc(C(F)(F)F)c1 | -8.4% | -5.7%
COc1cccc(OC)c1C(=O)Nc1ccc(Cc2ccncc2)cc1 | -20.5% | -17.4%
CCC(Sc1nc2ccccc2c(=O)[nH]1)C(=O)Nc1ccc(C(C)=O)cc1 (centres undefined) | -9.8% | -19.0%
Cc1[nH]c2ccccc2c1/C=N/Nc1ccccc1[N+](=O)[O-] | -11.8% | -22.7%
Cc1ccccc1-c1cn(-c2ccccc2)c(=S)[nH]1 | ? | -2.1%
COc1ccc(-c2ccccc2C2=CC(=O)CC(C)(C)C2=O)cc1 | -8.4% | -15.4%
O=C(Nc1ccc(F)cc1)c1cccc(N2C(=O)C3C4C=CC(C4)C3C2=O)c1 (centres undefined) | -5.3% | -24.5%
CCOC(=O)C1CCCN(C(=O)c2cc(OC)ccc2Br)CC1 (centres undefined) | 7.2% | -2.0%
O=C(Nc1c(Cl)cccc1Cl)c1cc(-c2ccc3c(c2)OCO3)on1 | -4.7% | 1.5%
COCc1cc(C)nc(SC)c1C#N | i | -9.2%
Cc1cc(NC(=O)c2ccc([N+](=O)[O-])cc2)n(CCC#N)n1 | 10.9% | 0.8%
Cc1ccc(S(=O)(=O)N2C[C@@H]3[C@H]4CC[C@H](C4)[C@@H]3[C@@H](C)[C@H]2c2ccco2)cc1 | i | -8.2%
Cn1c(=O)n(C)c2cc(N3CCOCC3)c(NC(=O)c3ccccc3Br)cc21 | -10.4% | 3.0%
CC(C)[C@@H](CO)NC(=O)c1ccc2c3n(nc2c1)-c1ccccc1CO3 | i | -15.6%
COc1ccc(S(=O)(=O)N2CCOC23CCN(C(=O)c2ccccc2OC)CC3)cc1 | -8.3% | -4.1%
Cc1ccc(N2C(=O)c3ccc(C(=O)NCCN4CCOCC4)cc3C2=O)cc1 | -1.5% | -14.3%
COc1cc([C@H](Cc2ccccc2)NC(C)=O)oc(=O)c1 | -4.2% | 9.6%
CC(C)(C)OC(=O)NCCCC[C@H](NC(=O)c1nc[nH]c1C(=O)N[C@@H](CCCCNC(=O)OC(C)(C)C)C(=O)OC(C)(C)C)C(=O)OC(C)(C)C | i | -29.6%
COc1ccc(C(CNC(=O)COc2ccc(Cl)c(C)c2)N2CCOCC2)cc1 (centres undefined) | -9.7% | -7.3%
Cc1ccc(NC(=O)c2ccc3c(c2)N(CC(=O)NC(C)C)C(=O)C(C)(C)O3)cc1 | 7.4% | 0.7%
N#CC1=C(N)Oc2c(oc(CO)cc2=O)C1c1ccccc1[N+](=O)[O-] (centres undefined) | -1.1% | 16.5%
COc1ccc(/C=N/NC(=O)c2sccc2OCc2ccc(F)cc2)cc1OC | · | -24.2%
Cc1cc(Br)ccc1NC(=O)c1sc2ncn(Cc3ccccc3Cl)c(=O)c2c1C | -8.3% | 6.3%
COc1ccc(Cl)cc1NC(=O)CSc1nc(NS(=O)(=O)c2ccccc2)cc(=O)[nH]1 | -4.0% | -7.2%
O=[N+]([O-])c1cc(C(F)(F)F)cc([N+](=O)[O-])c1Sc1n[nH]c(C(F)(F)F)n1 | -2.4% | -15.4%
CCOC(=O)c1cnc(-n2nc(C)cc2C)nc1NNc1ncc(-c2ccccc2)cn1 | ? | ?
COc1cc(OC)cc(-c2noc(-c3csc([C@H]4C[C@H](O)[C@@H](CO)O4)n3)n2)c1 | i | -11.1%
Cc1ccc(NC(=O)C(=O)NCc2ccccn2)cc1 | i | -8.0%
CN(C)c1ccc(NC(=O)Cn2c(SCc3ccc(F)cc3)nc3cccnc32)cc1 | -7.6% | -7.8%
O=C(COC(=O)c1cc(Cl)ccc1Cl)NCCN1C(=O)CSC1=O | -13.9% | -9.2%
COc1ccc(C(=O)/C=C/C(=O)N(Cc2ccc3c(c2)OCO3)C(C(=O)NC2CCCCC2)c2ccncc2)c(O)c1 (centres undefined) | ? | ?
O[C@@H]1COC(Nc2ccc(N=Nc3ccccc3)cc2)C[C@@H]1O (some centres undefined) | -4.0% | -19.1%
CC[C@H]1CN(C)CCc2c([nH]c3ccccc23)C(=O)C[C@@H]1/C(=C\OC)C(=O)OC | -12.1% | -1.2%
COc1cccc(C(=O)N2CCCCC2CCN2CCCCC2)c1 (centres undefined) | -12.3% | -3.4%
CCCCn1c(N)c(N(CCC(C)C)C(=O)C2CCCO2)c(=O)[nH]c1=O (centres undefined) | -2.6% | 3.1%
CCOC(=O)c1sc(C)c2c(=O)n(CC(=O)c3ccc(Br)cc3)nnc12 | -10.2% | -1.9%
O=C(c1ccc2c(c1)OCO2)C1CCCN(Cc2ccc3cccc(F)c3n2)C1 (centres undefined) | -9.2% | 4.9%
CC(=O)c1sc2c(c1OC(=O)c1ccccc1)c(=O)n(-c1ccccc1)c(=S)n2-c1ccccc1 | i | 3.5%

Additional compounds:
SMILES | VACV mCherry inh | Vaccinia Venus
CCOc1ccc(-c2c(C)nn3c(C)c(C(=O)NCc4cccc(OC)c4)cnc23)cc1OCC | -22.0% | -24.8%
COc1ccc(C(=O)OCC(=O)Nc2cccc(S(=O)(=O)NC3=NCCCCC3)c2)cc1[N+](=O)[O-] | -19.8% | -1.8%
N=c1oc2ccccc2cc1C(=O)Nc1ccc(F)cc1 | -16.8% | -3.3%
O=C(CSC1=NS(=O)(=O)c2cc(Cl)ccc2N1)NCc1ccc(F)cc1 | -14.5% | -5.4%
CCN(CC)c1ccc(NC(=O)CN2C(=O)CC(C)(C)S(=O)(=O)c3ccccc32)c(C)c1 | 19.5% | -0.2%
CN(Cc1ccccc1)C(c1cc2ccccc2o1)c1nnnn1C(C)(C)C (centres undefined) | 7.0% | -1.8%
CCCCOC(=O)c1ccc(NC(=O)c2cnc3n(c2=O)CCS3)cc1 | i | -7.8%
COc1cccc(-c2cc(C(=O)N3N=C(C)CC3(O)C(F)F)c3ccccc3n2)c1 (centres undefined) | -10.0% | -4.3%
CCN(CCCNC(=O)c1nn(-c2ccc(OC)cc2)c(=O)c2c1c1ccccc1n2C)c1cccc(C)c1 | -10.3% | -3.6%
COc1cc(/C=c2\[nH]c(=O)/c(=C/c3cc(OC)c(OC)c(OC)c3)[nH]c2=O)cc(OC)c1OC | -14.3% | 5.9%
FC(F)(F)c1cnc(NNC(=S)Nc2ccc(Cl)cc2)c(Cl)c1 | ? | ?
CCN(CC)CCN1CCN(c2cncc(-c3cccc(N)c3)n2)CC1 | 3.3% | -1.9%
O=S(=O)(N/N=C/c1ccc2c(c1)OCCO2)c1ccccc1 | -14.7% | -10.0%

Reprinted from above for reference:
SMILES | VACV mCherry inh | Vaccinia Venus
CCOc1ccc(S(=O)(=O)NNC(=S)Nc2ccc(Br)cc2)cc1 | -8.8% | -17.8%
O=C(c1ccc(N2CCCC2=O)cc1)N1CCCCCC1 | -13.1% | -5.0%
CCN(C(=O)COC(=O)c1ccc(F)c(S(=O)(=O)N2CCOCC2)c1)C1CCS(=O)(=O)C1 (centres undefined) | -5.4% | -15.9%
Cc1ccc(S(=O)(=O)/N=C(/c2ccc(F)cc2)N2CCCCC2)cc1 | i | -7.1%
COc1ccc(/C=N/Nc2cc(C)nc3ccc(Br)cc23)cc1 | ? | -29.8%
Cc1cccc(NC(=O)c2nc[nH]c2C(=O)NCC(=O)OCc2ccccc2)c1 | i | -26.4%

Rows were taken by chance; overall some 0.88% were active at least once.
